# Bioassay records deposited in PubChem BioAssay by National Center for Advancing Translational Sciences (NCATS).
# Menin MLL FP FL: inhibitors of human menin-MLL interaction, wild-type MLL peptide; Fluorescence polarization, fluorescein-MLL peptide displacement from menin; FP activity change, % at 61.4 µM; 290,000 tested, under 10 active; AID 1766; inconclusive = falling polarisation curve, or a change in total fluorescence; inactive = total fluorescence flat and polarisation flat or rising; no compound was filed as active; the % refers to the polarisation; negative = inhibition;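 further: % of control where 0% means no effect; inhibitors lower the polarisation; unlabelled MLL peptide was the positive control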
# TRPML1 inh: blocks the human TRPML1 channel | TRPML1-inducible cells, Ca2+ dye fluorescence, FDSS; hits give low values; inhibition of EC80 agonist-evoked calcium signal | activity change, negative = inhibition, % (concentration not given with the values) | 390,000 tested, 0.02% active | AID 624415; in the data active means activity change below about -50%; inconclusive means about -30% to -50%; inactive means above about -30%;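 further: stimulus is agonist 54-4 at its EC80 concentration; on the % scale 0 is the no-effect control and ±100 the full control effect; compound concentration not given in the record; the text of the record puts the active cut at -80%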
#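 TRPML1-DL cells, Tet-induced overnight (~16 h, 37 °C) at 1,500 cells/well, were loaded with Ca8 no-wash dye plus quencher for 45-90 min at room temperature. Compounds were pinned during FDSS kinetic reading; agonist 54-4 at EC80 (4 uM final) then added.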
# gsp agonist: agonists of gsp mutant (McCune-Albright syndrome); AID 624287; gsp mutant cells, cAMP HTRF, 30 min; control for the full effect not named in the record; 340,000 tested, 0.13% active; Potency, µM (series often up to 76.9 µM), for inactives: top-dose activation (cAMP increase), actives largely listed as activators; active = well fitted activation curve with a large enough effect; inconclusive = small, poorly fitted or top-dose-only effect, or another doubt; inactive = no such curve, though single readings can be large or run the other way; cell line not stated here;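 further: phosphodiesterase inhibitor Ro 20-1724 added with compounds to block cAMP breakdown; potency means the concentration at half of the fitted maximal effect; nearly all actives have a fitted effect of over 60% in size; about a fifth of the inactives were tested at one dose only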
#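 Cells stably selected in G418 were plated at 2000/well, grown 16-24 hr, then given compounds in DMSO with the PDE inhibitor […] (300 uM solution added) for 30 min at 37C; cAMP was read by HTRF.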
# ClpP mod: qHTS Assay for Activators of ClpP; purified B. subtilis ClpP, FRET peptide cleavage, 20 min; Potency, µM (titrated, usually from 57.5 µM), inactives show top-dose activity change, negative = active; 340,000 tested, 1.9% active; AID 651965, 2013; active = well fitted falling curve with a large enough effect; inconclusive = small, poorly fitted or top-dose-only effect; inactive = no such curve, though single readings can be large or run the other way; further: potency means the concentration at half of the fitted maximal effect; the source files actives as falling curves though it sought activators and does not explain the sign; nearly all actives have a fitted effect of over 65% in size; many hits overshoot -100%
# Target sequence (P80244 whole entry, looked up): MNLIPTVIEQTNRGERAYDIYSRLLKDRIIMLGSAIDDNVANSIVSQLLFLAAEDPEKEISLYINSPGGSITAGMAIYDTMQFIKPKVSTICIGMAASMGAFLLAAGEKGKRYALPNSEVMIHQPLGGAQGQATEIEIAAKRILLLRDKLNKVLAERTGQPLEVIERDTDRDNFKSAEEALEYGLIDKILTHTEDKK
#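 ClpP 10 microg/mL final, pH 8 Tris/KCl buffer with BSA, glycerol, Tween-20; compound pinned in; FRET-FV substrate; RT 20 min; Ex320/Em430; ΔFRET vs ADEP 5.8 microM, DMSO, no enzyme.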
# TRPV1 PAM: enhances activation of the human vanilloid receptor TRPV1; Q8NER1; 320,000 tested, 0.02% active; TRPV1-expressing cells, Fluo-8 calcium influx, capsaicin EC20 potentiation; host cell line not named in the record; control for the full effect not named in the record; potentiation, % at 8.33 µM; active means potentiation above 80%; inconclusive means 30% to 80%; inactive means below 30%; further: 0% is about no effect
# Target sequence (Q8NER1 whole entry, looked up): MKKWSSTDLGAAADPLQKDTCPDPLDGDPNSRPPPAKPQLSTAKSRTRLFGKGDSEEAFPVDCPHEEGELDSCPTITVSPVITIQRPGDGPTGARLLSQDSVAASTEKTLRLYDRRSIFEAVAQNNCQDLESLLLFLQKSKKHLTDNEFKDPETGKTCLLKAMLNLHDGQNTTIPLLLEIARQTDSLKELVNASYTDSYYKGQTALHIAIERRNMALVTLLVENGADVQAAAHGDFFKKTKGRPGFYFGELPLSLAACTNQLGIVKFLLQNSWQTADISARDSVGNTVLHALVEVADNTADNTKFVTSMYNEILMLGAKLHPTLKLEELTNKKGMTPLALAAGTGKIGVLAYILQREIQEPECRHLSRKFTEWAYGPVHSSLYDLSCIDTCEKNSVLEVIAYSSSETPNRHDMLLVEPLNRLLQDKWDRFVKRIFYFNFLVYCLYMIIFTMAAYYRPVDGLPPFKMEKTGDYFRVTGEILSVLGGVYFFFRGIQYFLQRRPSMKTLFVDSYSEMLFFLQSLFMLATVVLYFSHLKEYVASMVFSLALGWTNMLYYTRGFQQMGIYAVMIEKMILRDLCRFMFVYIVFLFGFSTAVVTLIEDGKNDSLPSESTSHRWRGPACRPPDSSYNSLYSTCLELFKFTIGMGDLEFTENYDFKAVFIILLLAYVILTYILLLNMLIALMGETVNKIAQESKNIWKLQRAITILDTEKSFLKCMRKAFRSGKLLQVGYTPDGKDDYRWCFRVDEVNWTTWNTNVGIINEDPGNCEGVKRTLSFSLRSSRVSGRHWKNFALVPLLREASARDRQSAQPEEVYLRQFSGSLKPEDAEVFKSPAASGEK
#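 Fluo-8 calcium influx in TRPV1-expressing cells, kinetic read (ex 480/em 520 nm). Compound added and read 3 min for agonist activity, followed by capsaicin at EC20 final and 2 min further read for enhancement.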
# gsp antag: gsp mutant antagonism | Potency, µM (doses to about 76.9 µM), inactives show top-dose activity change, negative = inhibition, hits mostly inhibitors | AID 624288 | 340,000 tested, 0.4% active | gsp-mutant cells, cAMP HTRF, 30 min; control for the full effect not named in the record; active = falling curve of any shape with a large fitted effect; inconclusive = falling curve, mostly with a smaller effect; inactive = flat or rising curve; cell line not stated here;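 further: intracellular cAMP measured with PDE inhibitor Ro 20-1724 present during compound exposure; potency means the concentration at half of the fitted maximal effect; on the % scale 0 is the no-effect control and ±100 the full control effect; nearly all actives have a fitted effect of over 65% in size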
#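 Cells, 2000/well, grown 16–24 h in DMEM 10% FBS with 0.5 mg/ml G418, then compounds plus […] (300 uM addition stock), 30 min at 37C. cAMP read by HTRF (cAMP-d2 and anti-cAMP antibody-K in lysis buffer) after 30 min RT.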
# Sfp PPTase inh: Sfp phosphopantetheinyl transferase inhibition; Biochemical Sfp PPTase activity, qHTS; Potency, µM, for the others: max response, negative = inhibition, usual class: inhibitors; 310,000 tested, 3.5% active; active means well fitted inhibition curve with a large enough effect; inconclusive means small, poorly fitted or top-dose-only effect, or another doubt; inactive means no such curve, though single readings can be large or run the other way;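 further: the enzyme is Sfp with the accession as filed and its product quenches rhodamine fluorescence; potency means the concentration at half of the fitted maximal effect; 0% = enzyme reaction without inhibitor and -100% = no enzyme wells; top concentration of the series not given in the record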
#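 Compounds were incubated with enzyme (final 15 nM) for 15 min at room temperature before substrate addition started the reaction. Fluorescence at 525 nm excitation, 598 nm emission was recorded immediately and after 30 minutes.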
# Active calls of the source: *; ? = inconclusive; . = no result given; [ ] = remark or other dose. The order is random (roughly 4.9% active in at least one column).
SMILES,Menin MLL FP FL,TRPML1 inh,gsp agonist,ClpP mod,TRPV1 PAM,gsp antag,Sfp PPTase inh
CCOCCCNC(=O)C(NC(=O)c1ccc2c(c1)OCO2)c1ccc(OC)cc1 (stereo not drawn),0.8,-5,-39%[inhibitor],-6.4%,-7,13%,-1%
COc1cc2c(cc1OC)CN(C(=O)c1ccc(S(=O)(=O)N3CCCC3)cc1)CC2,1.6,.,?,-2.0%,-2,-7%,-10%
CC1CN(c2nnnn2-c2ccccc2)CC(C)O1 (stereo not drawn),2.4,9,3%,-5.9%,1,4%,8%
CC(C)CC1NC(=O)N(CC(=O)Nc2cccc(Br)c2)C1=O (stereo not drawn),.,36,-10%,-0.5%,19,13%,.
CC(=O)Nc1ccc(C(=O)Nc2cccc(-c3cnc4ccccc4n3)c2)cc1,4.9,6,-17%[15.4 µM],.,-3,4%,-14%
CCCCn1c(N)c(N(CC(C)C)C(=O)c2cc(=O)[nH]c3ccccc23)c(=O)[nH]c1=O,.,23,-29%[15.4 µM],.,7,4%,.
O=C(Cn1[nH]c(=O)c2ccccc2c1=O)NC1CCN(Cc2ccccc2)CC1,2.2,-1,23%,-7.4%,7,10%,16%
O=C(OCCCc1cc2ccccc2c(=O)o1)c1ccc(F)cc1,.,1,.,-5.0%,-8,-7%,.
COc1ccccc1NS(=O)(=O)c1ccc(C)c(C(=O)Nc2ccc(S(=O)(=O)Nc3onc(C)c3C)cc2)c1,.,2,?,-2.3%,.,-5%,.
CCCCCOC(=O)C(C)Sc1n[nH]c(=O)[nH]c1=O (stereo not drawn),-1.8,-18,-4%,0.7%,17,-19%,2%
Oc1ccccc1N1CCN(c2nnnn2-c2ccccc2)CC1,2.8,-26,?,2.6%,-3,?,3%
Cc1cccc(N(CC(=O)NC2CCCC2)C(=O)c2csnn2)c1C,-4.6,-5,-1%,.,-2,9%,2%
CCN(CC)c1nc2c(c(=O)n(C)c(=O)n2C)n1CC(=O)c1ccccc1,4.5,4,-6%[15.4 µM],0.6%,-6,-7%,-1%
Cc1ccc(CN(C(=O)c2ccc([N+](=O)[O-])cc2)C2CCS(=O)(=O)C2)o1 (stereo not drawn),-7.6,15,-156%[inhibitor],1.5%,-6,-5%,10%
COc1ccc(OCC(=O)OCC(=O)c2ccc(OC)c(F)c2)cc1,.,12,-36%[inhibitor],-0.2%,-7,-8%,.
CN(/N=C/c1cccnc1)C1=NS(=O)(=O)c2ccccc21,3.3,7,5%[15.4 µM],.,2,-10%,-20%
Nc1nc(Cn2nnc(-c3ccccc3Cl)n2)nc(N2CCOCC2)n1,2.4,0,1%,0.8%,?,8%,10%
CCCNC(=O)c1ccc(N2CCC3(CC2)CC(c2cccc(Br)c2)=NO3)c(NC(=O)c2ccco2)c1,.,-4,-51%,-28%,-32,-26%,.
CCCCN1C=C(C(C)=O)C(=O)CC1,.,-12,.,1.6%,.,5%,.
CC(=O)c1c(OC(=O)c2ccccc2)ccnc1C(F)(F)F,.,8,23%,-1.7%,8,-2%,.
Cc1ccc(NC(=O)COC(=O)CCC(=O)c2cccs2)cc1,4.3,46,-6%,0.3%,-21,12%,7%
COc1ccc(/C=N/Nc2nnc(-c3ccccc3)c(=O)[nH]2)cc1,1.4,-11,-16%,25µM*,-2,-9%,11%
CCC(=O)Nc1nc2nc(-c3ccccc3)cc(=O)n2[nH]1,4.0,2,18%[15.4 µM],.,3,4%,11%
CCc1ccc(C(CC(=O)O)N2Cc3ccccc3C2=O)cc1 (stereo not drawn),0.9,-9,19%[15.4 µM],-1.8%,18,-22%,17%
COC(=O)c1[nH]c2ccccc2c1NC(=O)Oc1ccccc1,1.3,-1,-9%,28µM*,.,?,11µM*
O=C(N/N=C1\CCc2ccccc21)c1ccccc1Cl,3.3,-9,?,.,6,3%,10%
O=C(CN1CCN(S(=O)(=O)c2ccc(Br)cc2)CC1)Nc1ccccc1C(=O)c1ccccc1,8.6,15,15%,0.3%,26,-4%,?
CCCC(=O)Nc1nc2ccc(OCC)cc2s1,0.9,-1,-75%[inhibitor],-4.4%,-16,-2%,7%
CCOc1ccccc1NC(=O)C1CCC(CNc2c(N3CCCCC3)c(=O)c2=O)CC1 (stereo not drawn),0.2,4,?,2.4%,-14,-10%,-6%
O=C(OC(C(=O)Nc1ccc(Cl)cc1C(F)(F)F)c1ccccc1)c1c(Cl)cccc1Cl (stereo not drawn),-0.7,-9,-19%,-3.2%,?,-14%,11%
COc1cc(C(=O)NC(C)Cc2cccs2)cc(OC)c1OC (stereo not drawn),-0.8,31,24%,.,2,4%,24%
O=C(COc1ccccc1)OCc1cc(-c2ccco2)on1,.,-17,-2%,-1.7%,-30,14%,.
Cc1cccc(-n2ccnc2SCC(=O)O)c1C,-1.4,24,-18%[15.4 µM],10µM*,2,7%,9%
CCc1ccc(NC(=O)CNCc2ccc(OC)c(OC)c2)cc1,-0.8,27,-6%,.,-17,2%,?
CC(C)c1ccc(S(=O)(=O)N2CCN(CCC(=O)Nc3ccc(N(C)C)cc3)CC2)cc1,0.8,16,-14%,3.6%,-4,-11%,5%
CC12CCC=CC1=C(C=O)C1C2CCC2(C)C(O)CCC12 (stereo not drawn),.,-10,8%,.,.,-21%,.
CCCC(=O)N(CCN1CCOCC1)c1nc2c(OC)ccc(OC)c2s1,7.4,20,0%,1.2%,-13,-13%,7%
CN(C)CCN1C(=O)C(O)=C(C(=O)c2cc3ccccc3o2)C1c1cccc(Br)c1 (stereo not drawn),-1.1,1,?,-3.8%,19,13%,21%
CCOc1cc(C2C(C#N)=C(N)Oc3n[nH]c(-c4ccncc4)c32)cc([N+](=O)[O-])c1O (stereo not drawn),-0.7,28,3%,.,?,-16%,79µM*
COc1ccc[nH]c1=O,-0.3,12,0%,-1.8%,0,-1%,17%
CCCNC(=O)c1ccc(SC)cc1OC,-1.5,-3,7%,-2.3%,6,-3%,-16%
CC[C@@H](C)[C@H](NC(=O)OC(C)(C)C)c1nnc(S(=O)(=O)Cc2cc(C)ccc2C)o1,-0.6,12,19%,0.4%,-9,16%,?
COc1cc(/C=N/N2CCN(c3ccccc3OC)CC2)ccc1OC(C)=O,0.9,-10,-14%[15.4 µM],28µM*,0,-4%,19%
O=C(CCS(=O)(=O)c1ccccc1)Nc1nc2cc3c(cc2s1)OCO3,5.1,-2,-3%,-2.5%,5,50µM*,-17%
COc1cc2c(cc1OC)CN(C(=O)C(C)(C)C)CC2,1.6,20,-59%[inhibitor],-4.1%,?,-9%,17%
C=CCN(c1ccccc1OC)S(=O)(=O)c1cccc(C(=O)OCC(=O)c2c[nH]c3ccccc23)c1,7.0,-6,6%,-3.5%,1,-11%,4%
Cc1ccc(NCc2nnc(SCC(=O)c3ccc4c(c3)OCCO4)o2)c(C)c1,4.9,29,28%,0.0%,17,0%,5%
Cc1ccc(-c2noc(C3CCCN(C(=O)c4cccc(Cl)c4)C3)n2)o1 (stereo not drawn),-1.0,-5,13%,.,26,-16%,-24%
O=C(O)CCCCn1c(SCc2ccccc2Cl)nc2ccsc2c1=O,3.9,-2,-38%[inhibitor],2.3%,-13,-33%,-22%
CC(C)Sc1ncnc2[nH]ncc12,.,-9,-1%,-1.7%,.,6%,.
Fc1ccc(NC(=S)NCc2cccs2)cc1,-1.5,4,-9%,?,-23,4%,2%
COc1ccc(OCCNC(=O)Nc2cc(F)c(F)cc2Cl)cc1,-2.6,16,12%,.,0,2%,23%
CCOC(=O)c1[nH]nc(-c2cc(CC)c(O)cc2O)c1-c1cscn1,6.2,-2,2%,-0.2%,13,-25%,-12%
COC(=O)C(C)(N)Cc1ccc(O)cc1 (stereo not drawn),3.8,-13,.,-0.7%,2,14%,.
COc1ccc2[nH]c(=O)c(-c3nnn(-c4ccccc4)n3)cc2c1,-9.0,-5,0%,4.1%,10,-9%,-15%
CC(C)C1C(=O)N(Cc2cn(CC3CCCCC3)nn2)CCS(=O)(=O)N1Cc1ccc(-c2cccc(CO)c2)cc1 (stereo not drawn),.,4,-4%,1.2%,.,.,.
Cc1nn(C)c(C(=O)Sc2ccccc2)c1[N+](=O)[O-],2.4,5,0%[15.4 µM],.,-2,-1%,-9%
Cc1c(/C=N/NC(=O)c2sc3ccccc3c2Cl)cnn1C,0.8,-12,3%,-5.7%,-13,-23%,8%
COc1cc(NC(=O)CN2CCN(c3ccccc3O)CC2)c(C)cc1[N+](=O)[O-],6.6,0,13%,-1.6%,5,-22%,-14%
O=C(Nc1ccc(S(=O)(=O)N2CCCC2)cc1)C1CC(=O)N(c2ccccc2)C1 (stereo not drawn),4.7,2,-9%[15.4 µM],.,-7,5%,-6%

# (cont.)
SMILES,Menin MLL FP FL,TRPML1 inh,gsp agonist,ClpP mod,TRPV1 PAM,gsp antag,Sfp PPTase inh
N#Cc1ccc(CN2CCN(C(=O)c3cc(C4CC4)nn3-c3ccccc3)CC2)cc1,.,13,-8%,-1.7%,-33,-9%,.
COC(=O)[C@H](Cc1ccccc1)NC(=O)N(C)Cc1ccccc1,0.6,-9,-1%[15.4 µM],.,9,-6%,-6%
CCOC(=O)CC1C(C(=O)OCC)ON2OC(C(=O)OC)C(C(=O)OCC)C12 (stereo not drawn),2.2,15,-5%[15.4 µM],1.1%,1,8%,29%
CCCCCC(=O)Nc1cc(S(=O)(=O)N2CCOCC2)ccc1N1CCCC1,0.3,30,-20%,-0.5%,-4,10%,16%
O=C(c1ccc(Br)cc1)N1CCCC1,-0.3,-10,-10%,-6.7%,6,7%,1%
CC(C)CC(=O)Nc1ccc(Cc2ccncc2)cc1,4.3,8,-31%[inhibitor],.,-1,3%,5%

# Entries above that bear a hit mark in gsp antag.
Structure | Menin MLL FP FL | TRPML1 inh | gsp agonist | gsp antag | Sfp PPTase inh
O=C(CCS(=O)(=O)c1ccccc1)Nc1nc2cc3c(cc2s1)OCO3 | 5.1 | -2 | -3% | 50µM* | -17%
